Env fusion inh: HIV envelope-mediated fusion inhibition; HeLa-JRFL Env/CEM21 cell fusion, luciferase; inhibition, % at 12.3 µM; 360,000 compounds, 1.1% hits;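 active = mean replicate inhibition score of at least 50 and every replicate individually at or above 50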;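 note: 0% = plate neutral controls and 100% = maraviroc near 300 nM; one replicate is shown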
Yeast UUG start: yeast start codon fidelity modulation | 350,000 compounds, 0.13% hits | AID 602363 | activity score, % at 18.7 µM | S. cerevisiae UUG-firefly luciferase reporter, luminescence/redox ratio;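 active = replicate mean at a twofold rise or more, about +100% in these data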;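 note: firefly luciferase made from a UUG start codon reports start codon fidelity; reporter light over untreated wells divided by growth signal over untreated wells; some hits fall short of that in this replicate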
Active calls of the source: *; [ ] = another dose, or the depositor's remark. These rows are one share of the data; the hit share may differ from the screen's.

SMILES | Env fusion inh | Yeast UUG start
C[C@H](CO)N1C[C@H](C)[C@H](CN(C)S(C)(=O)=O)Oc2ccc(NC(=O)C3CCCCC3)cc2CC1=O | 7[16.7 µM] | 5
C[C@H]1CN([C@@H](C)CO)C(=O)c2cc(NC(=O)Cc3ccccc3)ccc2O[C@H]1CN(C)S(=O)(=O)c1ccc(Cl)cc1 | -40[16.7 µM] | 50
CCCNC(=O)N(C)C[C@@H]1Oc2ncc(C#Cc3ccccc3F)cc2C(=O)N([C@@H](C)CO)C[C@H]1C | -13[16.7 µM] | -2
C[C@@H]1CCCCO[C@H](CN(C)S(=O)(=O)c2ccc(F)cc2)[C@H](C)CN([C@@H](C)CO)C(=O)c2cc(NS(=O)(=O)c3cn(C)cn3)ccc2O1 | -12[16.7 µM] | 32
COc1ccc(NC(=O)N[C@H]2CC[C@@H](CCn3cc(-c4ccccc4F)nn3)O[C@@H]2CO)cc1 | 11[16.7 µM] | -2
CNC[C@@H]1Oc2ccc(NC(=O)Nc3cccc4ccccc34)cc2CC(=O)N([C@H](C)CO)C[C@H]1C | 2[16.7 µM] | 6
Cc1noc(C)c1S(=O)(=O)Nc1ccc2c(c1)C(=O)N([C@H](C)CO)C[C@H](C)[C@@H](CN(C)Cc1ccc(-c3ccccc3)cc1)O2 | -17[16.7 µM] | 5
O=C(C[C@@H]1CC[C@@H](NS(=O)(=O)c2ccccc2)[C@H](CO)O1)NCc1ccc(Cl)c(Cl)c1 | -15[16.7 µM] | 4
Cc1noc(C)c1NC(=O)Nc1ccc2c(c1)CC(=O)N([C@@H](C)CO)C[C@@H](C)[C@H](CN(C)C(=O)Nc1cccc3ccccc13)O2 | 12[16.7 µM] | -1
Cc1noc(C)c1NC(=O)N(C)C[C@H]1OCCCC[C@H](C)Oc2ccc(NC(=O)C3CCCCC3)cc2C(=O)N([C@@H](C)CO)C[C@@H]1C | -32[16.7 µM] | 5
C[C@@H]1CN([C@H](C)CO)C(=O)c2cccc(NC(=O)C3CC3)c2O[C@@H]1CN(C)C(=O)Nc1ccc(C(F)(F)F)cc1 | -35[16.7 µM] | 15
COc1cccc(S(=O)(=O)N[C@H]2CC[C@@H](CC(=O)NC3CCC3)O[C@@H]2CO)c1 | -2[16.7 µM] | -13
C[C@@H]1CN([C@H](C)CO)C(=O)c2cc(NC(=O)Cc3ccccc3)ccc2O[C@@H](C)CCCCO[C@H]1CN(C)Cc1ccc2c(c1)OCO2 | 12[16.7 µM] | 20
COCC(=O)N1[C@H](CO)[C@@H](c2ccc(C#Cc3ccccc3F)cc2)[C@@H]1C#N | 2[16.7 µM] | -6
Cc1cc(C(=O)Nc2ccc3c(c2)C(=O)N(C)[C@@H]2CC[C@H](CC(=O)N[C@@H](C)c4ccccc4)O[C@H]2CO3)no1 | 15[16.7 µM] | 3
C[C@@H]1CN([C@@H](C)CO)C(=O)c2cc(NC(=O)NC3CCCCC3)ccc2O[C@@H](C)CCCCO[C@H]1CN(C)C(=O)NC1CCCCC1 | 0[16.7 µM] | 10
C[C@@H]1CCCCO[C@@H](CN(C)CC2CCCCC2)[C@H](C)CN([C@@H](C)CO)C(=O)c2cc(NC(=O)Nc3ccc4c(c3)OCO4)ccc2O1 | -9[16.7 µM] | -2
[N-]=[N+]=NCc1ccccc1C[C@]1(C(=O)N2CCCCC2)N=C(c2ccc(OCCCO)cc2)O[C@H]1c1ccccc1 | 68*[16.7 µM] | 0
C[C@@H]1CCCCO[C@H](CN(C)C(=O)c2ccccc2)[C@@H](C)CN([C@H](C)CO)C(=O)c2cc(NC(=O)Nc3ccc(F)cc3)ccc2O1 | -18[16.7 µM] | -1
CN1C(=O)c2cc(NC(=O)c3ccccc3)ccc2OC[C@@H]2O[C@H](CC(=O)O)CC[C@@H]21 | 12[16.7 µM] | -3
Cc1ccc(S(=O)(=O)N(C)C[C@H]2Oc3c(cccc3N(C)C)C(=O)N([C@H](C)CO)C[C@@H]2C)cc1 | 18[16.7 µM] | 21
C[C@@H]1CN([C@H](C)CO)S(=O)(=O)c2ccc(-c3cncnc3)cc2O[C@H]1CN(C)Cc1cccnc1 | 16[16.7 µM] | -10
COc1ccc(CN2C(C)C3C(C)=CC2C2C(=O)N(C)C(=O)C32)cc1 (stereo not drawn) | -9[16.7 µM] | -22
C[C@H](O)C#Cc1cnc2c(c1)C(=O)N([C@@H](C)CO)C[C@H](C)[C@H](CN(C)C(=O)CC1CC1)O2 | -3[16.7 µM] | -4
C[C@@H]1CN([C@H](C)CO)S(=O)(=O)c2ccc(C3=CCCC3)cc2O[C@@H]1CN(C)C(=O)CC1CC1 | -3[16.7 µM] | -11

Entries from the list above with a Cl atom (two):
SMILES | Env fusion inh | Yeast UUG start
C[C@H]1CN([C@@H](C)CO)C(=O)c2cc(NC(=O)Cc3ccccc3)ccc2O[C@H]1CN(C)S(=O)(=O)c1ccc(Cl)cc1 | -40[16.7 µM] | 50
O=C(C[C@@H]1CC[C@@H](NS(=O)(=O)c2ccccc2)[C@H](CO)O1)NCc1ccc(Cl)c(Cl)c1 | -15[16.7 µM] | 4

Following part.
SMILES | Env fusion inh | Yeast UUG start
CC(=O)N(C)C[C@@H]1Oc2ncc(C#CCc3ccccc3)cc2C(=O)N([C@@H](C)CO)C[C@H]1C | -2[16.7 µM] | 19
C[C@@H]1CN([C@@H](C)CO)C(=O)c2cccc(NC(=O)C3CC3)c2O[C@H]1CN(C)C(=O)Nc1ccc(F)cc1 | -12[16.7 µM] | -22
CCCN(C)C[C@@H]1Oc2ncc(/C=C/c3ccccc3)cc2C(=O)N([C@H](C)CO)C[C@@H]1C | 25[16.7 µM] | -2
CO[C@@H]1CN(C)C(=O)c2ccc(NC(=O)c3ccc(Oc4ccccc4)cc3)cc2OC[C@@H](C)NC[C@H]1C | 27[16.7 µM] | -1
CCCNC(=O)Nc1ccc2c(c1)OC[C@H](C)N(C)C[C@@H](C)[C@@H](OC)CN(C)C2=O | 3[16.7 µM] | 10
C[C@@H]1CN([C@@H](C)CO)C(=O)c2cc(/C=C/c3ccccc3)cnc2O[C@@H]1CN(C)S(=O)(=O)c1ccccc1 | 6[16.7 µM] | 4
Cc1ccc(S(=O)(=O)Nc2ccc3c(c2)CC(=O)N([C@@H](C)CO)C[C@H](C)[C@H](CN(C)S(=O)(=O)c2ccc(F)cc2)O3)cc1 | 1[16.7 µM] | 13
CN(C)C(=O)C[C@@H]1CC[C@H](NC(=O)C2CCC2)[C@H](CO)O1 | 13[16.7 µM] | -2
COc1ccc(S(=O)(=O)Nc2ccc3c(c2)C(=O)N([C@@H](C)CO)C[C@@H](C)[C@@H](CN(C)C(=O)Nc2cccc4ccccc24)OCCCC[C@H](C)O3)cc1 | 12[16.7 µM] | 7
CN(C)Cc1cn(CC[C@H]2CC[C@H](NS(=O)(=O)c3ccc(-c4ccccc4)cc3)[C@@H](CO)O2)nn1 | 2[16.7 µM] | 3
C[C@H]1CN([C@@H](C)CO)C(=O)c2cccc(NS(=O)(=O)c3ccc(Cl)cc3)c2O[C@@H]1CN(C)C(=O)Nc1ccc2c(c1)OCO2 | 11[16.7 µM] | 8
CNC[C@H]1OCCCC[C@H](C)Oc2ccc(NS(=O)(=O)c3c(C)noc3C)cc2C(=O)N([C@H](C)CO)C[C@H]1C | 3[16.7 µM] | -6
C[C@H]1CN([C@@H](C)CO)C(=O)c2cc(NC(=O)Cc3cn(C)c4ccccc34)ccc2O[C@H]1CN(C)C(=O)Nc1ccc(C(F)(F)F)cc1 | 4[16.7 µM] | -18
COc1cccc(-c2ccc3c(c2)O[C@H](CN(C)C)[C@@H](C)CN([C@H](C)CO)S3(=O)=O)c1 | 9[16.7 µM] | 9
CCCNC(=O)C[C@@H]1C[C@@H]2c3cc(NC(=O)Nc4ccccc4)ccc3O[C@@H]2[C@@H](CO)O1 | -21[16.7 µM] | 6
Cc1ccc(S(=O)(=O)Nc2cccc3c2O[C@H](CN(C)C(=O)Nc2c(C)noc2C)[C@@H](C)CN([C@H](C)CO)C3=O)cc1 | -7[16.7 µM] | 14
N#C[C@H]1[C@@H](c2ccc(C3=CCCCC3)cc2)[C@@H](CO)N1C(=O)Nc1ccccc1F | 5[16.7 µM] | -6
C[C@@H]1CN([C@@H](C)CO)C(=O)c2cc(NS(=O)(=O)c3cn(C)cn3)ccc2O[C@@H](C)CCCCO[C@@H]1CN(C)S(=O)(=O)c1ccc(Cl)cc1 | -6[16.7 µM] | 4
C[C@H](CO)N1C[C@H](C)[C@H](CN(C)Cc2ccc(Cl)c(Cl)c2)Oc2ccc(NC(=O)Nc3ccccc3)cc2C1=O | 47[16.7 µM] | 5
C[C@@H]1CN([C@@H](C)CO)C(=O)c2cc(-c3ccccc3)cnc2O[C@@H]1CN(C)C(=O)c1cccnc1 | 0[16.7 µM] | 0
C[C@@H]1CCCCO[C@H](CN(C)Cc2ccc(C(=O)O)cc2)[C@@H](C)CN([C@H](C)CO)C(=O)c2cc(NS(=O)(=O)c3ccccc3)ccc2O1 | 3[16.7 µM] | 4
Cc1ccc(S(=O)(=O)N(C)C[C@@H]2Oc3c(NC(=O)C4CCCCC4)cccc3C(=O)N([C@H](C)CO)C[C@H]2C)cc1 | -4[16.7 µM] | 15
C[C@H](CO)N1C[C@H](C)[C@@H](CN(C)C)OCCCC[C@H](C)Oc2ccc(NC(=O)Nc3ccc4c(c3)OCO4)cc2C1=O | -2[16.7 µM] | 5
CC(C)NC(=O)N(C)C[C@@H]1Oc2ncc(-c3cncnc3)cc2C(=O)N([C@@H](C)CO)C[C@H]1C | -2[16.7 µM] | -6
C[C@@H]1CCCCO[C@H](CN(C)S(=O)(=O)c2ccc(Cl)cc2)[C@@H](C)CN([C@@H](C)CO)C(=O)c2cc(NS(=O)(=O)c3cccs3)ccc2O1 | -25[16.7 µM] | -5

Complete entries, quoted from the list. Values in the order: Env fusion inh | Yeast UUG start
COc1cccc(-c2ccc3c(c2)O[C@H](CN(C)C)[C@@H](C)CN([C@H](C)CO)S3(=O)=O)c1 across the screens: 9[16.7 µM] | 9
C[C@H](O)C#Cc1cnc2c(c1)C(=O)N([C@@H](C)CO)C[C@H](C)[C@H](CN(C)C(=O)CC1CC1)O2 across the screens: -3[16.7 µM] | -4
Cc1noc(C)c1NC(=O)Nc1ccc2c(c1)CC(=O)N([C@@H](C)CO)C[C@@H](C)[C@H](CN(C)C(=O)Nc1cccc3ccccc13)O2 across the screens: 12[16.7 µM] | -1
C[C@@H]1CCCCO[C@@H](CN(C)CC2CCCCC2)[C@H](C)CN([C@@H](C)CO)C(=O)c2cc(NC(=O)Nc3ccc4c(c3)OCO4)ccc2O1 across the screens: -9[16.7 µM] | -2

Next entries follow.
SMILES | Env fusion inh | Yeast UUG start
COCC(=O)Nc1ccc2c(c1)C(=O)N(C)[C@@H]1CC[C@@H](CC(=O)O)O[C@H]1CO2 | -2[16.7 µM] | 1
Cc1ccc(S(=O)(=O)Nc2ccc3c(c2)C(=O)N([C@@H](C)CO)C[C@H](C)[C@@H](CN(C)S(=O)(=O)c2ccc(Cl)cc2)OCCCC[C@H](C)O3)cc1 | 34[16.7 µM] | -2
O=C(C[C@@H]1C=C[C@H](NS(=O)(=O)c2ccc(F)cc2)[C@@H](CO)O1)NCc1ccncn1 | 4[16.7 µM] | 3
CCC(=O)N(C)C[C@H]1Oc2cc(C#C[C@@H](C)O)ccc2S(=O)(=O)N([C@@H](C)CO)C[C@H]1C | 1[16.7 µM] | 6
O=C(C[C@@H]1CC[C@@H](NC(=O)Nc2ccc3c(c2)OCO3)[C@@H](CO)O1)NCc1ccccc1 | 2[16.7 µM] | -11
CO[C@H]1CN(C)C(=O)c2ccc(NC(C)=O)cc2OC[C@@H](C)N(C(=O)C2CCC2)C[C@@H]1C | 1[16.7 µM] | 11
CNC(=O)C[C@@H]1CC[C@@H]2[C@@H](COc3ccc(NC(=O)c4ccc(F)c(F)c4)cc3C(=O)N2C)O1 | -1[16.7 µM] | 1
O=C(C[C@@H]1C[C@@H]2c3cc(NC(=O)Nc4ccccc4F)ccc3O[C@@H]2[C@H](CO)O1)NCc1ccccn1 | -10[16.7 µM] | -15
O=S(=O)(N[C@H]1CC[C@H](CCn2cc(-c3cccnc3)nn2)O[C@@H]1CO)c1ccc(F)cc1 | 1[16.7 µM] | -12
O=C(Nc1ccccc1)N[C@H]1CC[C@@H](CCNS(=O)(=O)c2ccccc2F)O[C@H]1CO | -6[16.7 µM] | -6
COc1ccccc1-c1cnc2c(c1)C(=O)N([C@H](C)CO)C[C@H](C)[C@@H](CN(C)Cc1ccc(C(=O)O)cc1)O2 | -19[16.7 µM] | 11
O=C(C[C@H]1C[C@@H]2c3cc(NC(=O)NC4CCCC4)ccc3O[C@@H]2[C@H](CO)O1)NCc1cc(F)ccc1F | 12[16.7 µM] | -17
Cc1cccc(S(=O)(=O)N[C@@H]2CC[C@H](CCNC(=O)Nc3cc(F)ccc3F)O[C@H]2CO)c1 | -1[16.7 µM] | -4
COc1ccc(S(=O)(=O)N[C@H]2CC[C@@H](CC(=O)NCCc3ccncc3)O[C@@H]2CO)cc1 | 13[16.7 µM] | -9
COc1cccc(NC(=O)N(C)C[C@H]2Oc3ncc(/C=C/c4ccccc4)cc3C(=O)N([C@@H](C)CO)C[C@H]2C)c1 | 0[16.7 µM] | 16
COc1ccccc1S(=O)(=O)N[C@@H]1CC[C@@H](CCNC(=O)C2CCCCC2)O[C@H]1CO | -51[16.7 µM] | 9
COC(=O)C[C@H]1CC[C@H]2[C@@H](COc3ccc(NC(=O)c4cccc(OC)c4)cc3C(=O)N2C)O1 | 1[16.7 µM] | -4
C[C@@H]1CN([C@H](C)CO)C(=O)c2cc(NC(=O)NC3CCCCC3)ccc2O[C@@H](C)CCCCO[C@H]1CN(C)S(=O)(=O)c1cccs1 | -13[16.7 µM] | -9

Source: PubChem BioAssay
